Assay outcomes as filed in PubChem.
MARV entry inh: qHTS for inhibitors of binding or entry into cells for Marburg Virus; AID 540276, 2011; hit rate 1.8% among 300,000; Marburg virus pseudotyped entry inhibition, cell reporter; control for the full effect not named in the record; about a third of the inactives were read at about 46 µM; Potency, µM (titrated, usually from 37.8 µM), without a hit: top-dose activity change, negative = inhibition, hits mostly inhibitors; active = well fitted inhibition curve with a large enough effect; inconclusive = small, poorly fitted or top-dose-only effect, or effect the other way; inactive = flat fitted curve, though single readings scatter; tested in HEK293 cells; about a fifth of its hits are not listed in these tables; note: % is set by controls: 0 for no effect and ±100 for the full control effect; luciferase read-out
Lassa entry inh: qHTS for Inhibitors of binding or entry into cells for Lassa Virus. Lassa virus pseudotype entry inhibition, cell reporter; control for the full effect not named in the record. Potency, µM (doses to about 37.9 µM), for inactives: top-dose activity change, negative = inhibition, hits mostly inhibitors. hit rate 1.2% among 300,000; active means well fitted inhibition curve with a large enough effect; inconclusive means small, poorly fitted or top-dose-only effect, or effect the other way; inactive means flat fitted curve, though single readings scatter; tested in HEK293 cells; note: % is set by controls: 0 for no effect and ±100 for the full control effect; nearly all actives have a fitted effect of over 50% in size; luciferase read-out
StopGo reporter: High Throughput Screening for Foot and Mouth Disease Virus Antivirals; Potency, µM (titrated, usually from 57.9 µM), without a hit: at the top dose signal change, negative = less light; human cells with a luciferase reporter of 2A StopGo recoding; control for the full effect not named in the record; hit rate 1.2% among 410,000; active = well fitted falling curve with a large enough effect; inconclusive = small, poorly fitted or top-dose-only effect; inactive = no such curve, though single readings can be large or run the other way; tested in HEK293T cells; note: % is set by controls: 0 for no effect and ±100 for the full control effect; nearly all actives have a fitted effect of over 45% in size; luciferase light after 4 h
NS1 function inh: qHTS Assay for Inhibitors of Influenza NS1 Protein Function | S. cerevisiae slowed by influenza A NS1, growth recovery by OD600 | Potency, µM (titrated, usually from 46.1 µM), for inactives: top-dose activity, positive = more growth | hit rate 0.4% among 270,000; active means well fitted rising curve with a large enough effect; inconclusive means small, poorly fitted or top-dose-only effect; inactive means no such curve, though single readings can be large or run the other way; note: nearly all actives have a fitted effect of over 50% in size
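S. cerevisiae expressing influenza A NS1, grown in glucose, washed, then diluted 1:100 into pH 6.0 -URA galactose medium with 23 nl compound. Growth recovery read as OD600; NS1-free strain serves as control.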
Cruzain noTriton: qHTS Assay for Promiscuous and Specific Inhibitors of Cruzain (without detergent); Cruzipain (Trypanosoma cruzi), P25779; purified cruzain, Z-FR-AMC fluorescence, no detergent; Potency, µM, without a hit: max response, negative = inhibition, usual class: inhibitors; hit rate 2.3% among 200,000;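 note: plate controls were enzyme without inhibitor for no effect and buffer without enzyme for full effect; nearly all actives have a fitted effect of over 40% in size; top concentration of the series not given in the record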
Target sequence (P25779 123-467 limits assumed): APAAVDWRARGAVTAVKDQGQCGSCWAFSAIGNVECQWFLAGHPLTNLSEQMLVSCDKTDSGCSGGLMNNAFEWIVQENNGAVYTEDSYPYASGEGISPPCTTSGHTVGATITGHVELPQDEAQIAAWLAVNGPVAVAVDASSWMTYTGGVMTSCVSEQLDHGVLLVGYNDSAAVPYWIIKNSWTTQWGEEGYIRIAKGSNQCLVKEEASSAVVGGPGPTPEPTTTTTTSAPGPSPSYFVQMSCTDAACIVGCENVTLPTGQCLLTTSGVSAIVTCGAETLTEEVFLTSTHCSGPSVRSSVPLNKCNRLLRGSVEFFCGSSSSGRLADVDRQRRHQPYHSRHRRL
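Detergent-free condition (0.00005% Triton X-100) in acetate buffer pH 5.5 with DTT. 1.5 nM enzyme and compound were pre-mixed 15 min, then 2 uM Z-FR-AMC substrate added; reaction progress from fluorescence change between first and third reads (60 s).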
Cruzain Triton: qHTS Assay for Promiscuous and Specific Inhibitors of Cruzain (with detergent) | Cruzipain (Trypanosoma cruzi), P25779 | purified cruzain, Z-FR-AMC fluorescence, 0.01% Triton | Potency, µM, without a hit: max response, negative = inhibition, usual class: inhibitors | hit rate 0.43% among 200,000 | AID 1478, 2009;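 note: plate controls were neutral wells for no effect and buffer without enzyme for full effect; nearly all actives have a fitted effect of over 40% in size; top concentration of the series not given in the record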
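Enzyme 1.5 nM, Z-FR-AMC 2 uM, NaOAc 100 mM pH 5.5, DTT 5 mM, Triton X-100 0.01%; 15 min RT compound preincubation; kinetic ex360/em450, 60 s delta.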
RE007 growth inh: qHTS Assay for Inhibitors of the HIV-1 protein Vpr; Potency, µM (highest dose often 92.2 µM), for inactives: top-dose activity change, negative = less growth; S. pombe RE007 Vpr strain, BacTiter-Glo ATP luminescence, 24 h; control for the full effect not named in the record; hit rate 0.21% among 360,000; active = well fitted falling curve with a large enough effect; inconclusive = small, poorly fitted or top-dose-only effect; inactive = no such curve, though single readings can be large or run the other way;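 note: % is set by controls: 0 for no effect and ±100 for the full control effect; nearly all actives have a fitted effect of over 50% in size; the assay follows cell death caused by Vpr and the record does not say whether a fall means rescue or toxicity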
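Fission yeast strain RE007, carrying one chromosomally integrated HIV-1 vpr copy, was seeded at OD 0.01 in PMG+AL medium with 23 nL pinned compound. After 24 h at 30 °C and 99% humidity, viability was read by BacTiter-Glo luminescence.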
SARS PLpro yeast: qHTS of Yeast-based Assay for SARS-CoV PLP. Potency, µM (top dose mostly 32.9 µM), inactives show at the top dose activity, positive = growth rescue. hit rate 0.19% among 330,000. S. cerevisiae expressing SARS-CoV PLpro, growth rescue; control for the full effect not named in the record; active means well fitted rising curve with a large enough effect; inconclusive means small, poorly fitted or top-dose-only effect; inactive means no such curve, though single readings can be large or run the other way; note: 0% is about no effect; nearly all actives have a fitted effect of over 55% in size; growth read by luminescence after 48 h
* hit, by the source's call; ? = inconclusive; nt = no result given; & = joins results of further samples; [ ] = remark or other dose. Unless noted, calls come from the whole dose curve; as a rule, active = well fitted curve in the direction sought with a large enough effect; inconclusive = small, poorly fitted or top-dose-only effect, or another doubt; inactive = no such curve, though single readings can be large; an effect the other way counts as inactive or inconclusive. Potency is the fitted concentration of half-maximal effect.

SMILES	MARV entry inh	Lassa entry inh	StopGo reporter	NS1 function inh	Cruzain noTriton	Cruzain Triton	RE007 growth inh	SARS PLpro yeast
CCCn1c(O)c2ccc(C(=O)N=NC(=O)c3cccnc3)cc2c1O	13%	6%	35%[activator]	-2%	9%	0.4%	-8%	-1%
CCCCCOc1ccc(C2NC(=O)NC2=O)cc1 (configuration not stated)	nt	nt	-1%	?	5%	0.1%	16%	6%
CC(C(=O)Nc1cccc([N+](=O)[O-])c1)n1nnc2ccccc21 (configuration not stated)	6%	?	26%	9%	-11%	-4.0%	16%	-1%
COC(=O)C(O)(c1ccc(NC(=S)NC(=O)c2ccc(Cl)cc2Cl)cc1)C(F)(F)F (configuration not stated)	4%	?	0%	18%	3%	-6.0%	-22%	-1%
NS(=O)(=O)c1ccc(NC(CNS(=O)(=O)c2ccccc2)c2ccccc2)cc1 (configuration not stated)	-27%[46.1 µM]	?	25%	nt	nt	nt	8%	4%
CC(C)(C)c1cccc(OCCCSc2ncccn2)c1	-14%	-9%	20%	-8%	5%	-13%	-11%	-1%
O=C(CCCOc1ccc(Cl)cc1Cl)NNC(=O)C1CCC1	4%[46.1 µM]	?	-9%	nt	nt	nt	-1%	-4%
CSc1ccc(CCNC(=O)CCCn2c(=O)c3cccn3c3ccccc32)cc1	nt	-17%[46.1 µM]	-11%	nt	?	-2.8%	nt	nt
CCC(C)NC(=O)c1nn(-c2ccc(C)cc2)nc1CO (configuration not stated)	?	16%[46.1 µM]	7%	nt	-2%	3.3%	nt	nt
COc1ccc(/C=C/C(=O)c2oc3ccc(F)cc3c2C)cc1	24%	-14%	-6%	7%	?	-6.1%	1%	28%
O=C(NCc1cccs1)c1nc2c(nnn2Cc2ccccc2Cl)c(=O)[nH]1	?	11µM*	?	-3%	-23%	-5.7%	-2%	10%
Cc1ccc(S(=O)(=O)NC(C(=O)Oc2cc3oc(=O)cc(C)c3cc2Cl)C(C)C)cc1 (configuration not stated)	22%&-1%	-10%	0%	2%	3%	-13%	33%	22µM*
COc1ccc(CNC(=O)CN(c2ccccc2OC)S(=O)(=O)c2ccc(C)cc2)cc1	nt	?	?	nt	11%	-0.8%	nt	nt
CN(Cc1ccccc1)S(=O)(=O)c1ccc(NS(=O)(=O)Cc2ccccc2)cc1	20%	-2%	-12%	9%	2%	-17%	-3%	-11%
Cc1cc(N2CCN(C(=O)c3ccco3)CC2)n2nc(C)c(-c3ccccc3)c2n1	-19%&-19%	-8%	?	5%	?	-3.2%	4%	-3%

6 neighbouring compounds already listed:
SMILES	MARV entry inh	Lassa entry inh	StopGo reporter	NS1 function inh	Cruzain noTriton	Cruzain Triton	RE007 growth inh	SARS PLpro yeast
CC(C(=O)Nc1cccc([N+](=O)[O-])c1)n1nnc2ccccc21 (configuration not stated)	6%	?	26%	9%	-11%	-4.0%	16%	-1%
COC(=O)C(O)(c1ccc(NC(=S)NC(=O)c2ccc(Cl)cc2Cl)cc1)C(F)(F)F (configuration not stated)	4%	?	0%	18%	3%	-6.0%	-22%	-1%
NS(=O)(=O)c1ccc(NC(CNS(=O)(=O)c2ccccc2)c2ccccc2)cc1 (configuration not stated)	-27%[46.1 µM]	?	25%	nt	nt	nt	8%	4%
CC(C)(C)c1cccc(OCCCSc2ncccn2)c1	-14%	-9%	20%	-8%	5%	-13%	-11%	-1%
O=C(CCCOc1ccc(Cl)cc1Cl)NNC(=O)C1CCC1	4%[46.1 µM]	?	-9%	nt	nt	nt	-1%	-4%
CSc1ccc(CCNC(=O)CCCn2c(=O)c3cccn3c3ccccc32)cc1	nt	-17%[46.1 µM]	-11%	nt	?	-2.8%	nt	nt

Fetched by compound from the entries so far:
SMILES	MARV entry inh	Lassa entry inh	StopGo reporter	NS1 function inh	Cruzain noTriton	Cruzain Triton	RE007 growth inh	SARS PLpro yeast
O=C(NCc1cccs1)c1nc2c(nnn2Cc2ccccc2Cl)c(=O)[nH]1	?	11µM*	?	-3%	-23%	-5.7%	-2%	10%
CC(C)(C)c1cccc(OCCCSc2ncccn2)c1	-14%	-9%	20%	-8%	5%	-13%	-11%	-1%

(more compounds)
SMILES	MARV entry inh	Lassa entry inh	StopGo reporter	NS1 function inh	Cruzain noTriton	Cruzain Triton	RE007 growth inh	SARS PLpro yeast
CN(C(=O)COC(=O)c1cc(=O)[nH]c2ccccc12)C1CCCCC1	?	16%	3%	nt	nt	nt	6%	-4%
[N-]=[N+]=NCC/C=C\C1NS(=O)(=O)OCC1O (configuration not stated)	nt	nt	3%	13%	nt	nt	9%	11%
CCCN(CC(=O)Nc1ccccc1C)C(=O)COC(=O)c1cnc(C)cn1	-23%[46.1 µM]	-8%	-3%	nt	nt	nt	-14%	nt
C=CCOc1ccc(C2C(C(=O)c3ccco3)=C(O)C(=O)N2Cc2cccnc2)cc1 (configuration not stated)	1%	6%	-5%	-2%	13%	-4.3%	-15%	6%
CN(CCO)C1=NS(=O)(=O)c2cc([N+](=O)[O-])ccc21	?	2%[46.1 µM]	-14%	nt	nt	nt	-25%	4%
Cc1ccccc1Cn1c(=N)n(CC(O)c2ccco2)c2ccccc21 (configuration not stated)	?	-5%	-17%	-4%	3%	2.8%	-9%	-4%
C#CCN(N(C)c1ncc(C(F)(F)F)cc1Cl)S(=O)(=O)c1ccc2ccccc2c1	-1%[46.1 µM]	15%	-22%	2%	-4%	-8.5%	-2%	-6%
Cn1c(CCCOc2ccc(Cl)cc2Cl)nnc1SCC(=O)Nc1ccc(F)c(Cl)c1	?	7%	-26%	21%	25%	-6.1%	0%	-1%
CCn1c(=O)c2sccc2n(CC(=O)NCCC2=CCCCC2)c1=O	?	nt	-8%	-2%	nt	nt	-9%	0%
CC(C)(C)C1(c2ccccc2)NC(=O)N(CC(=O)N2CCOCC2)C1=O (configuration not stated)	9%	-14%	-3%	5%	7%	5.6%	10%[3.69 µM]	nt
COc1ccccc1N(CC(=O)NC1CC2CCC1C2)S(=O)(=O)c1ccc(C)cc1 (configuration not stated)	-27%	?	?	-20%	nt	nt	-1%	?
O=S(=O)(NCCCSc1ccccc1)c1ccccc1F	-10%[46.1 µM]	-16%	-2%	-10%	nt	nt	11%	-2%
COCCNC(=S)N1CCC(c2nc(-c3ccc(F)cc3)no2)CC1	-5%[46.1 µM]	?	?	0%	nt	nt	7%	3%
Cc1nnc(NC(=O)CSc2nnc3ncccn23)s1	11%[46.1 µM]	-16%[46.1 µM]	-10%	-1%	nt	nt	5%	1%
COCCNS(=O)(=O)c1ccccc1	2%	10%	7%	-2%	3%	0.9%	-8%	-5%
COc1cc(NC(=O)CCNS(=O)(=O)c2ccc3c(c2)CCC(=O)N3)cc(OC)c1	20%	16%	12%	-1%	1%	0.6%	-7%	-1%
Cc1c(Cl)cccc1NC(=O)c1cnc2sc(N3CCOCC3)nn2c1=O	nt	4%[46.1 µM]	-14%	nt	-8%	-0.9%	nt	nt
CCN(CC)c1nc(-c2ccc(C(C)(C)C)cc2)nc2ccccc12	nt	13µM*	?	nt	2%	-3.2%	nt	nt
CCCn1ncc(C(=O)N(C)C2CCCN(Cc3ccccc3F)C2)c1C (configuration not stated)	nt	nt	-14%	7%	nt	nt	1%	1%
CC(=O)Nc1ccc(S(=O)(=O)NCC2CCC(C(=O)NCc3ccccc3)CC2)cc1 (configuration not stated)	5%&5%	-12%	-25%&-4%	nt	-10%	0.0%	5%	0%
COc1cc2cccc(OC)c(=O)c2c(O)c1OC	23%[46.1 µM]	-1%[46.1 µM]	7%	-4%	1%	-6.6%	-14%	-1%
Cc1ccc(S(=O)(=O)NC(=O)Nc2ccc(C)cn2)cc1	12%[46.1 µM]	5%	11%	-4%	nt	nt	-8%	16%
Nc1c(C(=O)c2ccccc2)sc2snc(SCC(=O)c3ccccc3)c12	?	?	-29%	29%	13µM*	-28%	40%	2%
O=C(COC(=O)c1ccc(Sc2ccccc2)c([N+](=O)[O-])c1)NC1CCS(=O)(=O)C1 (configuration not stated)	?	21%	-5%	8%	?	-3.0%	1%	17%
CCN1CCN(c2ccc(S(=O)(=O)N3CCCCC3)cc2NC(=O)Cc2ccc(Cl)c(Cl)c2)CC1	?	?	-39%	nt	nt	nt	-19%	-4%
Nc1nc(Nc2cccc(F)c2)nc2ccccc12	?	?	-9%	-114%	16µM*	?	?	-17%
COc1ccccc1CNc1ncc(-c2ccc(F)cc2)n1C	nt	nt	14%	11%	nt	nt	-22%	-3%
O=C(c1cc(-c2ccccc2)nn1-c1ccccc1)N1CCN(S(=O)(=O)c2ccc(F)cc2)CC1	-23%	-18%	-6%	nt	nt	nt	-16%	2%
CCc1cc2cc3c(cc2nc1SCC(=O)OC(C)C)OCO3	-4%[46.1 µM]	10%	-2%	2%	nt	nt	-8%	0%
Cc1cc(C)nc(/N=C(\N)C2=C(O)CC(C)(C)CC2=O)n1	25%	3%	26%	-10%	13%	0.5%	0%	-1%
CC1(C)CC(=O)C=C(NCc2ccc(Cl)c(Cl)c2)C1	-7%	30%	-19%	25%	3%	0.9%	-4%	-1%
COc1ccc(Nc2nnc(-c3ccncc3)s2)cc1Cl	nt	nt	-30%	0%	nt	nt	-22%	-2%
O=[N+]([O-])c1ccc(N2CCCCC2)c2ncccc12	?	12%	-30%	0%	nt	nt	?	0%
CCOc1ccc2oc(-c3ccccc3)c(C(N)=O)c2c1	0%	1%	33%[activator]	0%	nt	nt	1%	12%
c1ccc(-n2c(SCC3CCCCO3)nnc2-c2cnccn2)cc1 (configuration not stated)	-4%	5%	-10%	-6%	9%	4.7%	32%	nt
O=C(O)c1ccc2c(c1)C(=O)N(C(Cc1ccc(O)cc1)C(=O)O)C2=O (configuration not stated)	-2%	-7%	16%	11%	-5%	0.8%	4%	-1%
